Vaccinia pol inh – inhibitors of vaccinia virus processive DNA synthesis (E9 polymerase) | in vitro processive DNA synthesis, absorbance read-out; active compounds read low; some inactives read as strong as hits | normalized absorbance, % (concentration not given with the values) | hit rate 0.94% among 46,000;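 active = replicate mean up to 90% and picked by the depositor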;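 note: 100% = median of the test wells of a plate; 100 nL library stock went into each well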
An asterisk follows results filed as active.

SMILES	Vaccinia pol inh
S=C(Nc1ccc(Cl)cc1)Nc1ccc(-c2csnn2)cc1	100
Nc1nc2ccc(Cl)cc2c(-c2ccccc2)c1CN1CCOCC1	102
COc1ccc(C(=O)Nc2cc(C(F)(F)F)ccc2-n2cncn2)cc1	102
O=C1C(=Cc2ccc(C(F)(F)F)cc2)C(=O)c2ccccc21	100
CC(=O)OCC(=O)[C@@]1(O)CCC2C3CCC4=CC(=O)C=CC4(C)C3[C@@H](O)C[C@@]21C (stereo partly drawn)	100
CCCNC(=O)Cn1nc(C)c2sc3ccccc3c2c1=O	101
CCOC(=O)c1c(C)c(C(=O)NC2CCCCC2)c(C)n1C	101
CCc1c(C)c(C#N)c2nc3ccccc3n2c1-n1ccnc1	100
CC(=O)OC1C(OC(C)=O)N(C(C)=O)C(=O)N1C(C)=O (stereo not drawn)	100
Nc1nc2ccc(-c3nc4ccccc4o3)cc2s1	100
CCc1cccc(NC(=O)C2CCN(c3nn4c(=O)cc(C)nc4s3)CC2)c1	90
O=C(CCC1CCCC1)NCc1ccc2[nH]c3c(c2c1)CCCC3	104
O=S(=O)(Cc1ccc(Cl)cc1)c1c[nH]c2ccccc12	81
COc1ccccc1OC(C)C(=O)NN (stereo not drawn)	98
O=C(NC(NCc1ccccc1Cl)(C(F)(F)F)C(F)(F)F)c1ccccc1	100
CC(N)C(O)c1ccccc1 (stereo not drawn)	101
Cc1cc(OC(C)C(=O)N(Cc2ccccc2Cl)C2CCS(=O)(=O)C2)ccc1Cl (stereo not drawn)	99
CC(C)C(NS(=O)(=O)c1cccs1)C(=O)NC1CCCCCC1 (stereo not drawn)	101
COc1ccc(NC(=O)C2(N(Cc3ccccc3)C(=O)Cc3nc(N)n[nH]3)CCCCC2)cc1	101
CCOC(=O)c1ccc(-c2coc3cc(O)c(CC)cc3c2=O)o1	106
CCOC(=O)c1cnn2c1nc(Sc1ccc(C)cc1)c1ccccc12	111
CN(C)CCNc1oc(-c2ccc(Cl)cc2)nc1C#N	101
CCCc1nc2ccccc2n1CC(=O)N(CCC#N)c1ccccc1	103
CCOC(=O)c1ccc(/C=N/O)[n+](Cc2ccccc2)c1	100
COCC(C)Nc1nc(-c2ccc(Cl)cc2)cs1 (stereo not drawn)	100
CC(C)c1ccccc1NC(=O)COc1ccc2ccc(=O)oc2c1	100
O=C(CSc1ccccc1)Nc1nccs1	105
Cc1ccc(NC(=O)c2ccc(F)c(S(=O)(=O)N3CCCC3)c2)cc1F	100
Cc1ccc(-c2ccc(=O)n(CC(=O)N3CCCCC3)n2)cc1	100
Nc1ncnc2nc(Sc3ncnc4ccccc34)[nH]c12	100
COc1cccc(NC(=O)COC(=O)c2ccccc2F)c1	102
O=c1oc(-c2ccccn2)nc2ccccc12	95
C=CCC1NC(C)(C)Cc2ccccc21 (stereo not drawn)	104
Clc1ccc(Cn2nnc(N3CCCC3)n2)cc1	105
C=CCn1c(SCC(=O)c2ccccc2)nc2c(c1=O)C(C)(C)Cc1ccccc1-2	100
Cc1ccc(Nc2nc(N)nc(CC(=O)CSc3nc4ccccc4s3)n2)cc1	100
O=C(Cc1ncc(C(F)(F)F)cc1Cl)NCCN1CCCCC1	114
COC(=O)C1=C(NC(C)=O)CCS1	100
O=S(=O)(CCSc1ccc(C(F)(F)F)cn1)CCSc1ccc(C(F)(F)F)cn1	101
COc1ccc(OC)c(N=Cc2cc(I)cc(C)c2O)c1	92
Cn1c(CSCC(=O)Nc2ccccc2)nnc1SCC(=O)c1ccccc1	110
CCN(Cc1ccccc1)C(=O)CSc1nncn2c1cc1occc12	95
Cc1cc(C)c2c(CC(=O)Nc3c(C(=O)Nc4cccc(Cl)c4)oc4ccccc34)coc2c1	96
O=C(NCc1ccc(F)cc1)/C(=C/c1cccs1)c1ccccc1	82
CC1(C)CC(=O)C=C(NCC2NCCc3ccccc32)C1 (stereo not drawn)	88
CCNC(=O)CC1C(=O)N(c2ccccc2)C(=O)N1CCOC (stereo not drawn)	103
O=C1CC2(CCCC2)C(=O)N1c1cc(C(F)(F)F)cc(C(F)(F)F)c1	104
CC(=O)Nc1ccc(C(=O)COc2ccccc2O)cc1	97
Cc1cccc(CCNS(=O)(=O)c2ccc3c(c2)CCN3C(=O)C2CCC2)c1	104
Cc1cc(=O)[nH]c2[nH]n(-c3ccccc3)c(=O)c12	100
CNc1ccc(-c2c(C#N)c(C#N)c(N)n2-c2ccc(C)cc2)cc1	104
O=C(Cc1ccccc1)Nc1nnc(-c2ccccc2)o1	113
CC1CCCC(C)N1CCNC(=O)C1C2C=CC3(CN(Cc4ccccc4Cl)C(=O)C13)O2 (stereo not drawn)	101
CC1CC(C)CN(CC(C)(C)NS(=O)(=O)c2ccccc2)C1 (stereo not drawn)	106
CC(=O)SCC(=O)N=c1sc2ccccc2n1C	101
N#CC(=C1CCCC1)c1nc(-c2ccccc2)cs1	96
CC(C)(C)NC(=O)c1ccc2c3c(onc13)-c1ccccc1C2=O	99
COc1ccc(N=C2NC(=O)C(Cc3ccc(C)cc3)S2)cc1 (stereo not drawn)	98
CCOC(=O)C1CCN(C(=O)c2cc(-c3ccc(C)cc3)nc3ccccc23)CC1	107
COc1ccc(C2C3=C(CC(C)(C)CC3=O)Nc3cc(OC)c(OC)cc32)cc1 (stereo not drawn)	101

Additional entries
SMILES	Vaccinia pol inh
O=S1(=O)CCN(Cc2ccc(N3CCOCC3)cc2)CC1	115
CS(=O)(=O)CS(=O)(=O)Nc1ccc2c(c1)OCCO2	101
COc1ccc(Cl)cc1S(=O)(=O)Nc1ccc2c(c1)COC2=O	107
COC(=O)C1C(=O)C=C(Nc2ccc(F)cc2)CC1c1ccccc1 (stereo not drawn)	99
O=C(Nc1ccccc1N1CCCCC1)C1CCCCC1	103
COc1cc(OC)cc(-n2c(=O)c3sccc3n(CC(=O)c3ccc(Cl)cc3)c2=O)c1	101
COc1ccc(C2C(C(=O)N3CCCCC3)c3ccccc3C(=O)N2C)cc1 (stereo not drawn)	93
O=C(O)/C=C\c1cccn1-c1nccs1	115
COc1ccc(OC)c(-c2nc(Nc3ccccc3F)sc2CC(=O)O)c1	103
Cc1nc(C(C#N)c2ccccc2)cs1 (stereo not drawn)	96
CCn1c(=O)c2cc(C(=O)NCc3cccs3)sc2c2ccccc21	95
O/N=C(\Cc1cscn1)c1ccc(O)cc1O	91
Cc1ccc(Oc2ccc(C#N)cc2)c(C)c1	118
CCN1CCN(C(c2cccs2)C(C)NC(=O)c2ccc(F)cc2)CC1 (stereo not drawn)	100
O=C1C(=Nc2ccccc2)c2ccccc2N1Cc1ccccc1	103
O=C(CSc1nnc2ccccn12)Nc1ccc(F)cc1	99
Cc1ccc(C)c(NC(=O)Cc2c(C)nc3c(-c4ccccc4)c(C)nn3c2C)c1	102
NC(=O)c1ccccc1NC(=O)c1cc(=O)c2ccccc2o1	94
CCc1ccccc1NC(=O)Cn1c(=O)oc2cc(S(=O)(=O)N3CCCCC3C)ccc21 (stereo not drawn)	99
CCCC(=O)c1ccc2[s+]c3ccccc3[n+](CCCN(C)C)c2c1	98
Cc1n[nH]c(C)c1N1C(=O)c2cccc3c(N)ccc(c23)C1=O	100
CNC(=S)NCCc1c(C)[nH]c2ccccc12	104
O=C(NCCN1CCOCC1)c1cccs1	93
Cc1c(SCC(C)C)cc(N2C(=O)c3ccccc3C2=O)cc1S(=O)(=O)c1ccccc1	98
CC(=O)Nc1ccc(S(=O)(=O)NCC2CCCO2)cc1 (stereo not drawn)	97
CCCN(C(=O)c1cc2cc3ccc(C)cc3nc2o1)c1cccc(C)c1	92
O=C(Cc1c[nH]c2ccccc12)NC1(C(=O)NC2CCCCC2)CCCCC1	101
CC(=O)OC1CCC2(C)C(=CCC3C4CCC(=O)C4(C)CCC32)C1 (stereo not drawn)	101
Cc1cc(C)n(Cc2ccccc2)n1	97
Cc1nn(-c2ccccc2)nc1C(=O)c1c(C(C)(C)C)[nH]n(-c2ccccc2)c1=O	104
O=C1CCC=CN1c1cn[nH]c1-c1ccc(Cl)cc1	102
COc1ccc2nc(SC(=O)c3ccccc3)nc(C)c2c1	100
O=C(CSc1cccc[n+]1[O-])NCc1ccc(Cl)cc1	103
NCC(c1ccco1)c1c[nH]c2ccccc12 (stereo not drawn)	99
COc1ccccc1Nc1c2c(nc3ccc(NC(=O)Cc4cccs4)cc13)CCCC2	103
CCCCN(C(=S)Nc1cccc(C)c1)C1CCN(C(C)=O)CC1	111

Exported bar-delimited: part of the list above
SMILES | Vaccinia pol inh
COc1cc(OC)cc(-n2c(=O)c3sccc3n(CC(=O)c3ccc(Cl)cc3)c2=O)c1 | 101
COc1ccc(C2C(C(=O)N3CCCCC3)c3ccccc3C(=O)N2C)cc1 (stereo not drawn) | 93
O=C(O)/C=C\c1cccn1-c1nccs1 | 115
COc1ccc(OC)c(-c2nc(Nc3ccccc3F)sc2CC(=O)O)c1 | 103
Cc1nc(C(C#N)c2ccccc2)cs1 (stereo not drawn) | 96
CCn1c(=O)c2cc(C(=O)NCc3cccs3)sc2c2ccccc21 | 95
O/N=C(\Cc1cscn1)c1ccc(O)cc1O | 91
Cc1ccc(Oc2ccc(C#N)cc2)c(C)c1 | 118
CCN1CCN(C(c2cccs2)C(C)NC(=O)c2ccc(F)cc2)CC1 (stereo not drawn) | 100
O=C1C(=Nc2ccccc2)c2ccccc2N1Cc1ccccc1 | 103
O=C(CSc1nnc2ccccn12)Nc1ccc(F)cc1 | 99
Cc1ccc(C)c(NC(=O)Cc2c(C)nc3c(-c4ccccc4)c(C)nn3c2C)c1 | 102
NC(=O)c1ccccc1NC(=O)c1cc(=O)c2ccccc2o1 | 94
CCc1ccccc1NC(=O)Cn1c(=O)oc2cc(S(=O)(=O)N3CCCCC3C)ccc21 (stereo not drawn) | 99

Continuation.
SMILES	Vaccinia pol inh
COc1ccccc1NC(=O)Cn1cccc1	104
O=C(N/C=C/n1cnc2cc(C(F)(F)F)ccc21)c1ccccc1	101
CCc1ccc2c(C(F)(F)F)cc(=O)oc2c1	106
CCc1cccc(NC(=S)N(Cc2c[nH]c3ccccc23)C2CCCC2)c1	112
COc1ccccc1C(=O)NC(C)(C)CO	105
CNC(=O)C1Cc2ccccc2CN1S(=O)(=O)c1cccs1 (stereo not drawn)	100
CC1(C)CN(c2ccc(CC#N)cc2)C1=O	110
Cc1ccc(C)c(NCc2cn[nH]c2-c2ccc(Br)cc2)c1	102
COc1ccc(/C=C/C(=O)Nc2sc(C)c(C)c2C(N)=O)cc1	99
Cc1ccccc1NC(=S)Nc1cc(NS(C)(=O)=O)ccc1C	90
CC(C)(O)/C(=C/C#N)n1cccn1	98
COc1cccc(/C([O-])=N\c2c[n+](-c3ccc(C)cc3)no2)c1	102
CC1CCC(NC(=O)c2oc(=O)c3ccccc3c2-c2ccccc2)CC1 (stereo not drawn)	85
S=C(NCCc1ccccc1)c1ccccc1	99
O=C(NCCN1CCOCC1)c1ccccn1	106
Oc1ccccc1C=Nc1ccccc1Cl	101
Cc1nn(-c2ccccc2Cl)c2sc(C(=O)N3CCCC3)cc12	98
CCC1OC(c2cccc(OC)c2)=Nc2ccccc21 (stereo not drawn)	96
Cc1nn(-c2ccccc2)c2nc(C(F)(F)F)[nH]c(=O)c12	103
C=C(C)CSC1=C(C#N)C2(CCCCC2)C(C#N)C(=O)N1 (stereo not drawn)	98
CC1(O)c2ccccc2C(=O)N1CCc1cccc2ccccc12 (stereo not drawn)	92
Cc1sc(NC(=O)CCC(=O)O)c(C#N)c1C	98
CCOC(=O)NC1(Nc2ccccc2Cl)Oc2ccccc2O1	94
CCc1nc(C)c(-c2ccccc2)c(=O)[nH]1	92
Nc1ccc(-c2nc3ccccc3s2)cc1	100
Cc1ccc(-c2cc(C(=O)O)c3ccccc3n2)o1	100
O=C1N=C(N2CCCC2)S/C1=C/c1cccc(Cl)c1	100
[C-]#[N+]c1ccc(Cl)cc1C(C)S(=O)(=O)c1ccc(C)cc1 (stereo not drawn)	97
O=C1Nc2ccccc2S/C1=C/c1ccc(C(=O)N2CCCCC2)cc1	95
Cc1cc(NC(=O)CSc2nnc(-c3ccco3)o2)no1	105
COC(=O)NCCOc1ccc(C)cc1	98
Cc1cc2cc(CNC(=O)c3ccccc3)ccc2[nH]1	99
Cc1ccc(Nc2nc(C)cc(C)n2)c(Br)c1	101
COc1ccc(CC(=O)Nc2cccc(-c3nc4cc5ccccc5cc4[nH]3)c2)cc1	100
COc1ccc(-c2n[nH]c(C)c2Oc2ccccc2)c(O)c1	98
O=C(COc1ccc(Br)cc1)NCC1CCCO1 (stereo not drawn)	100

Of the compounds above, these contain a tert-butyl group.
SMILES	Vaccinia pol inh
CC(C)(C)NC(=O)c1ccc2c3c(onc13)-c1ccccc1C2=O	99
Cc1nn(-c2ccccc2)nc1C(=O)c1c(C(C)(C)C)[nH]n(-c2ccccc2)c1=O	104

(list continues)
SMILES	Vaccinia pol inh
CC1SC(/N=C/c2ccc(F)cc2)=NNC1=O (stereo not drawn)	99
COC(=O)c1cc2oc3ccccc3c2n1CC(=O)N1CCCc2ccccc21	100
Cc1ccc2c(c1)c(-c1ccccc1)c(-c1ccccc1)n2CC(O)CN1C(=O)CNC1=O (stereo not drawn)	93
CN(C)c1ccc(NCc2cccc(Br)c2)cc1	100
Cc1ccc(-c2nc(C3CCN(S(=O)(=O)c4ccc(C(C)(C)C)cc4)CC3)no2)cc1	109
Cc1ccc(Oc2ccccc2/C=C/C(=O)O)cc1	109
CCOC(=O)c1c(NC(C)=O)c2c3c(sc2n1Cc1ccc(F)cc1Cl)CCCC3	106
C=CCn1c(=NC(=O)CSC(C)=O)sc2ccccc21	100
OC(COCCC12CC3CC(CC(C3)C1)C2)CN1CCCC1 (stereo not drawn)	101
COc1cccc(-c2cc(C(F)(F)F)nc(-n3cc(C)c(=O)[nH]c3=O)n2)c1	101

Looked up above:
`COC(=O)c1cc2oc3ccccc3c2n1CC(=O)N1CCCc2ccccc21` in Vaccinia pol inh shows 100
`CCOC(=O)c1c(NC(C)=O)c2c3c(sc2n1Cc1ccc(F)cc1Cl)CCCC3` in Vaccinia pol inh shows 106
`Cc1ccc(-c2nc(C3CCN(S(=O)(=O)c4ccc(C(C)(C)C)cc4)CC3)no2)cc1` in Vaccinia pol inh shows 109
`OC(COCCC12CC3CC(CC(C3)C1)C2)CN1CCCC1` (stereo not drawn) in Vaccinia pol inh shows 101
`COc1cccc(-c2cc(C(F)(F)F)nc(-n3cc(C)c(=O)[nH]c3=O)n2)c1` in Vaccinia pol inh shows 101
`Cc1ccc2c(c1)c(-c1ccccc1)c(-c1ccccc1)n2CC(O)CN1C(=O)CNC1=O` (stereo not drawn) in Vaccinia pol inh shows 93

Bioassay records as filed in PubChem BioAssay.

Some of the compounds tested. The share of hits here may be higher or lower than overall.
